PrP 5UTR inh: inhibition of PrP 5' UTR reporter expression; cell-based PrP 5' UTR mRNA reporter, plate reader; inhibition, % (test concentration not listed); actives 0.35% (n = 340,000); AID 488862, 2010;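 active = every replicate at 50% or more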;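 note: 0 = median of the neutral control wells; tested in H4 reporter cells; numbers are from one replicate; inactives centre near -14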
Sa RN4220 lethal: growth inhibition of S. aureus RN4220, primary screen, OD600; 16 h; actives 0.33% (n = 330,000); inhibition, % (concentration not given with the values); AID 1259311, 2017;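 active = z-score of -3 or lower and OD600 up to 0.18 on both plates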;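 note: plate controls were untreated cells for no effect and reference antibiotic for full effect; stock transfer was 100 nL into about 80 µL; one replicate is shown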
Sa ugtP lethal: growth inhibition of ugtP-null S. aureus, primary screen, RN4220 ugtP deletion, OD600; 16 h; some inactives read as strong as hits; growth inhibition, % (concentration not given with the values); actives 0.54% (n = 330,000); AID 1259309, 2017;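 active = z-score under -3 and OD600 up to 0.15 on both plates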;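 note: plate controls were untreated wells for no effect and antibiotic for full effect; wells of about 80 µL received 100 nL stock; the first replicate is given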
Mtb hypoxia inh: PubChem AID 1159583. M. tuberculosis hypoxia-regulated fluorescent reporter, fluorescence. fluorescence inhibition, % (no concentration beside the values). actives 0.1% (n = 300,000);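 active = 35 to 45% if threefold the growth effect, above 45% if 1.5-fold the growth effect; inactive = the rest, general growth blockers included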;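 note: wells of about 50 µL received 100 nL stock; 0% = vehicle wells and 100% = reference inhibitor wells; whole bacteria with a GFP reporter of the hypoxia response; strong numbers were not always called active; many hits fall short of the cut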
Bead autofluor: flagged as autofluorescent in microsphere protease counterscreen; fluorescence intensity (no concentration beside the values); actives 3.1% (n = 360,000); compound autofluorescence counterscreen, microsphere flow cytometry; stronger effect = higher value;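 active = at least 3 SD above the mean of all compounds, about 16000 in these data; inconclusive = too few beads counted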;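 note: 100 nL of 1 mM stock went into each well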
BJeLR lethal: MLPCN primary cell-based screen for lethality selective to Ras in HRASV12 cells; BJeLR (HRASV12) viability, CellTiter-Glo ATP luminescence, 48 h; reference of the scale not given here; inhibition, % (concentration not given with the values); actives 0.17% (n = 300,000); AID 1554, 2009;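 active = replicate mean above 50%; inconclusive = above 50% but judged a plate artefact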;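 note: 50 nL library stock added to about 25 µL; numbers are from one replicate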
Mtb hypoxia inh growth: further read-out of Mtb hypoxia inh, marked with its call; growth inhibition, %; measured here: M. tuberculosis growth (absorbance);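 0% = vehicle and 100% = reference antibiotic; read after six days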
* hit, by the source's call; ? = inconclusive; · = not tested or not shown. No enrichment for hits; any-hit rate near 4%.

1	Cn1c(=O)[nH]c(=O)c2c1nc(CN1CCOCC1)n2CCCc1ccccc1
2	COCCn1c(SCC(=O)Nc2nnc(C)s2)nnc1-c1cc2ccccc2cc1O
3	Cc1cc(C)cc(NC(=O)Nn2cnnc2)c1
4	CC(Sc1nc2c(c(=O)[nH]1)CCCC2)C(=O)Nc1ccc(S(N)(=O)=O)cc1 (centres undefined)
5	COC(=O)c1ccccc1N1CCS(=O)(=O)CC1
6	O=C(O)CCC(=O)Nc1ccc(N2CCCCCC2)cc1
7	CCCn1c(SCc2nc(-c3cccs3)no2)nnc1-c1ccncc1
8	CCOc1ccc(CC(=O)Nc2c3c(nn2C(C)(C)C)CS(=O)(=O)C3)cc1

Screen / compound no.	1	2	3	4	5	6	7	8
PrP 5UTR inh	1.3	-39.6	-11.6	6.1	-6.7	12.6	14.5	-1.1
Sa RN4220 lethal	-6.5	1.9	2.5	1.9	1.3	0.1	1.7	1.8
Sa ugtP lethal	-5.9	2.6	2.6	5.7	3.4	12.9	0.7	6.6
Mtb hypoxia inh	6.1	6.4	8.9	4.1	17.0	·	5.9	4.9
Mtb hypoxia inh growth	8.0	3.9	8.4	2.1	9.9	·	6.8	8.8
Bead autofluor	5034	5944	5254	4266	4362	2019	21415*	5413
BJeLR lethal	9.2	2.8	0.1	-0.7	-13.3	0.7	15.0	3.9

Grouped by structure, the compounds so far containing an NH in an aromatic ring.
1	Cn1c(=O)[nH]c(=O)c2c1nc(CN1CCOCC1)n2CCCc1ccccc1
4	CC(Sc1nc2c(c(=O)[nH]1)CCCC2)C(=O)Nc1ccc(S(N)(=O)=O)cc1 (centres undefined)

Screen / compound no.	1	4
PrP 5UTR inh	1.3	6.1
Sa RN4220 lethal	-6.5	1.9
Sa ugtP lethal	-5.9	5.7
Mtb hypoxia inh	6.1	4.1
Mtb hypoxia inh growth	8.0	2.1
Bead autofluor	5034	4266
BJeLR lethal	9.2	-0.7

The listing picks up with the 4 entries that preceded the break.
5	COC(=O)c1ccccc1N1CCS(=O)(=O)CC1
6	O=C(O)CCC(=O)Nc1ccc(N2CCCCCC2)cc1
7	CCCn1c(SCc2nc(-c3cccs3)no2)nnc1-c1ccncc1
8	CCOc1ccc(CC(=O)Nc2c3c(nn2C(C)(C)C)CS(=O)(=O)C3)cc1
9	CCCCCCCC(=O)NC(Oc1ccccc1[N+](=O)[O-])C(Cl)(Cl)Cl (centres undefined)
10	O=C(O)[C@H](Cc1ccccc1)NC(=O)N1CCCCCC1
11	CCC(=O)Nc1c(S(=O)(=O)c2ccccc2)c2nc3ccccc3nc2n1C(C)c1ccccc1 (centres undefined)
12	CC(=O)Nc1nc(=O)c2ccccc2s1
13	COCCn1c(=S)[nH]c2cc(C(=O)NC(C)C)ccc2c1=O
14	O=C(CSc1nnnn1C1CC1)N1CCN(c2ccccc2F)CC1
15	CC(C)c1ccccc1OCCNC(=O)c1cccnc1
16	Cc1cc(SCC(=O)NN=Cc2ccc(C(=O)O)cc2)nc2ccccc12

Screen / compound no.	5	6	7	8	9	10	11	12	13	14	15	16
PrP 5UTR inh	-6.7	12.6	14.5	-1.1	-29.1	-36.9	-29.3	-16.4	-25.4	-24.9	-20.6	·
Sa RN4220 lethal	1.3	0.1	1.7	1.8	0.1	2.8	0.9	3.1	-0.2	-0.4	5.9	5.8
Sa ugtP lethal	3.4	12.9	0.7	6.6	-3.5	4.9	-23.0	3.5	-3.6	-4.7	2.1	1.3
Mtb hypoxia inh	17.0	·	5.9	4.9	16.9	-2.5	3.2	15.5	4.3	-20.0	-6.2	-8.6
Mtb hypoxia inh growth	9.9	·	6.8	8.8	9.3	4.7	5.6	4.1	-7.9	9.1	-6.9	-3.9
Bead autofluor	4362	2019	21415*	5413	8099	3534	2051	10608	?	3999	2020	·
BJeLR lethal	-13.3	0.7	15.0	3.9	0.6	2.5	-1.9	-3.3	·	·	-4.8	·

17	O=C(OCC(=O)c1ccc[nH]1)c1ccc2ccccc2n1
18	CCOC(=O)CN1C(=O)N[C@@H](CCc2ccccc2)[C@H](C(C)=O)[C@H]1C
19	CC(O)[C@H]1CN=C(N)N1CCCCC1CCCCC1 (some centres undefined)
20	COC(=O)c1ccccc1NC(=O)C1CCN(S(=O)(=O)c2cc(C)ccc2OC)CC1
21	CN(c1ccccc1)S(=O)(=O)c1ccc(Cl)c(C(=O)NCCc2c[nH]c3ccccc23)c1
22	CCCC(C(=O)NCC1CCCO1)N(Cc1ccccc1)C(=O)CNS(=O)(=O)c1ccccc1 (centres undefined)
23	CCCc1[nH]nc2c1C(c1cccnc1)C(C#N)=C(N)O2 (centres undefined)
24	C(=NNc1ccccn1)c1cccnc1

Screen / compound no.	17	18	19	20	21	22	23	24
PrP 5UTR inh	-11.0	-21.4	-14.2	8.5	-3.2	4.7	-14.7	·
Sa RN4220 lethal	1.8	·	·	4.9	1.4	-2.7	-13.4	3.5
Sa ugtP lethal	3.8	·	·	7.3	2.3	-0.2	1.0	11.9
Mtb hypoxia inh	6.6	·	·	·	6.8	0.5	8.9	5.6
Mtb hypoxia inh growth	-0.2	·	·	·	1.8	2.6	6.1	9.0
Bead autofluor	4517	4355	3189	2219	2027	5608	3214	·
BJeLR lethal	-12.4	3.0	6.0	-8.2	-6.3	-0.3	6.3	·

Copied from the results shown, 4 compounds:
1	Cn1c(=O)[nH]c(=O)c2c1nc(CN1CCOCC1)n2CCCc1ccccc1
2	COCCn1c(SCC(=O)Nc2nnc(C)s2)nnc1-c1cc2ccccc2cc1O
3	Cc1cc(C)cc(NC(=O)Nn2cnnc2)c1
4	CC(Sc1nc2c(c(=O)[nH]1)CCCC2)C(=O)Nc1ccc(S(N)(=O)=O)cc1 (centres undefined)

Screen / compound no.	1	2	3	4
PrP 5UTR inh	1.3	-39.6	-11.6	6.1
Sa RN4220 lethal	-6.5	1.9	2.5	1.9
Sa ugtP lethal	-5.9	2.6	2.6	5.7
Mtb hypoxia inh	6.1	6.4	8.9	4.1
Mtb hypoxia inh growth	8.0	3.9	8.4	2.1
Bead autofluor	5034	5944	5254	4266
BJeLR lethal	9.2	2.8	0.1	-0.7

Other entries
25	Cc1ccc(OCC(=O)Nc2ccc(O)c(-c3nc4ccccc4o3)c2)cc1
26	CCCNC(=O)Nc1ccc2c(c1)nc(C)n2C
27	O=C(CCc1ccccc1)NC(=S)Nc1cccc(Br)c1
28	O=C(NCC1COc2ccccc2O1)c1cccc(S(=O)(=O)N2CCOCC2)c1 (centres undefined)
29	CC(C)CC1NC(=O)N(CC(=O)N2CCN(S(=O)(=O)c3ccccc3)CC2)C1=O (centres undefined)
30	CS(=O)(=O)N1CCC(C(=O)Nc2cc(Cl)c(Cl)cc2Cl)CC1
31	Cc1cc(=O)[nH]c2c(C)cc(S(=O)(=O)Nc3ccc(O)cc3)cc12
32	CC1Cc2ccccc2N1C(=S)NC(=O)c1ccc(Cl)cc1Cl (centres undefined)

Screen / compound no.	25	26	27	28	29	30	31	32
PrP 5UTR inh	-6.9	-29.0	-19.3	-54.1	-16.9	-14.0	-11.3	-23.8
Sa RN4220 lethal	11.3	0.2	-11.0	3.3	2.1	1.9	-0.1	9.7
Sa ugtP lethal	-4.1	2.6	6.5	7.9	2.2	-2.8	3.9	-0.2
Mtb hypoxia inh	·	·	22.5	25.4	5.6	-1.0	6.3	-2.1
Mtb hypoxia inh growth	·	·	16.1	9.8	10.6	0.0	1.0	1.0
Bead autofluor	4790	2365	9098	3865	3417	4729	4006	2642
BJeLR lethal	3.6	-8.8	-6.8	·	-1.8	4.8	4.5	1.4

33	CCC(Oc1ccccc1)C(=O)N1CCN(CC)CC1 (centres undefined)
34	CCOC(=O)c1ccc(NC(=O)C2(c3ccc(OC)cc3)CCCC2)cc1
35	Nc1nc(C2CC2)c(Sc2sc(N)nc2C2CC2)s1
36	CS(=O)(=O)N(CC(=O)N1CCc2ccccc2C1)c1cccc(Br)c1

Screen / compound no.	33	34	35	36
PrP 5UTR inh	-1.0	-9.0	-15.1	-19.8
Sa RN4220 lethal	3.7	4.7	1.7	4.9
Sa ugtP lethal	-0.2	25.1	-7.8	9.3
Mtb hypoxia inh	·	11.2	·	2.6
Mtb hypoxia inh growth	·	9.4	·	4.0
Bead autofluor	4687	3242	2749	·
BJeLR lethal	-4.1	-2.8	-2.0	2.6

Screening results as filed in PubChem BioAssay.
